Screening data (PubChem BioAssay)
Six1-Eya2 inh – qHTS Assay for Inhibitors of the Six1/Eya2 Interaction; hit rate 0.56% among 360,000; activity change, % (test concentration not listed); AlphaScreen GST-Six1/His-Eya2 binding, biochemical; active compounds read low; control for the full effect not named in the record; Homeobox protein SIX1 (Homo sapiens) + Protein phosphatase EYA2 (Homo sapiens), …; in the data active = activity change below about -65%; inconclusive = about -30% to -65%; inactive = above about -30%; further: on the % scale 0 is the no-effect control and ±100 the full control effect
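Homogeneous AlphaScreen proximity assay pairing GST-Six1 with His-tagged Eya2 (added as 5X mix: 250 nM and 500 nM) in 50 mM Tris pH 8.0, 300 mM NaCl, 1 mM TCEP. Glutathione donor and nickel acceptor beads; 1 h, 37 °C, dark.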
D2 PAM – Beta-Arrestin HTS for Positive Allosteric Modulators of the Human D2 Dopamine Receptor: Potentiators; DiscoveRx D2 beta-arrestin cells, luminescence, 90 min; 100% = 57 uM dopamine signal; AID 624464, 2012; hit rate 0.23% among 360,000; potentiation, % (no concentration beside the values); active = potentiation of 50% or more; inconclusive = 30% to 50%; inactive = 30% or less;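 further: compound concentration not given in the record; tested on top of an EC20 dose of dopamine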
Target sequence (P14416 whole entry, looked up): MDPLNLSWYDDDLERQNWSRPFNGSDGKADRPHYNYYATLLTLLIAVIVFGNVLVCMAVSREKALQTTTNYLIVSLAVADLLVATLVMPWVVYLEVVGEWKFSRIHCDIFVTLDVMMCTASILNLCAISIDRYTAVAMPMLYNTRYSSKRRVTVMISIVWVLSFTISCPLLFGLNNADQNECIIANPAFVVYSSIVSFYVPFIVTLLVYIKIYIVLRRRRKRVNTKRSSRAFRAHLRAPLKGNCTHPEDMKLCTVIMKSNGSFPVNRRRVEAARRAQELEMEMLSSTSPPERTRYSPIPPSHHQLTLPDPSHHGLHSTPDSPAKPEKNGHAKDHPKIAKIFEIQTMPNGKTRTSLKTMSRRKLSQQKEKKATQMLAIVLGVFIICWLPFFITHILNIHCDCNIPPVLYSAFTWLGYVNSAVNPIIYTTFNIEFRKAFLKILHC
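D2 cells co-treated with compound plus 50 nM dopamine (EC20) for 90 min at 37 deg C to detect potentiation. Beta-arrestin recruitment was read as enzyme-fragment luminescence after 1 h at ambient temperature. Full response was set by 57 uM dopamine.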
TRPML1 blocker – qHTS for Inhibitors of the Human Mucolipin Transient Receptor Potential 1 (TRPML1); hit rate 0.02% among 390,000; activity change, negative = inhibition, % (concentration not given with the values); TRPML1-inducible cells, Ca2+ dye fluorescence, FDSS; active compounds read low; inhibition of EC80 agonist-evoked calcium signal; Mucolipin-1 (Homo sapiens), Q9GZU1; in the data active means activity change below about -50%; inconclusive means about -30% to -50%; inactive means above about -30%;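 further: stimulus is agonist 54-4 at its EC80 concentration; on the % scale 0 is the no-effect control and ±100 the full control effect; the text of the record puts the active cut at -80%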
Target sequence (Q9GZU1 whole entry, looked up): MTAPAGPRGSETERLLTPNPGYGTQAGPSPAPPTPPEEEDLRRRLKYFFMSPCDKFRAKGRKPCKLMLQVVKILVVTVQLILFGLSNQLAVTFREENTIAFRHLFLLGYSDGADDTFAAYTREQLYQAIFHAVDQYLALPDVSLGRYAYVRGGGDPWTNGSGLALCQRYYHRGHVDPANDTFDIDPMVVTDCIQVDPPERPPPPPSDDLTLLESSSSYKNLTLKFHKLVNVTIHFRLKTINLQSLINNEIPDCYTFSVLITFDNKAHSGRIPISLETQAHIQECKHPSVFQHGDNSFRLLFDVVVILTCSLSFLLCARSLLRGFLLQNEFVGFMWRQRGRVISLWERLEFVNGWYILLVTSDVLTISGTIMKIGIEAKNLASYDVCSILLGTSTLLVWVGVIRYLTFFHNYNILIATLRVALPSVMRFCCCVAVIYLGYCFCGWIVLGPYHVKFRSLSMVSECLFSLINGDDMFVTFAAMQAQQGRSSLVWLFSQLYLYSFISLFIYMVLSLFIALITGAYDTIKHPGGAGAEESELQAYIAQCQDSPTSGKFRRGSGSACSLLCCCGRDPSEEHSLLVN
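Calcium fluorescence in TRPML1-DL cells induced overnight with Tet: a 110 s read after compound pin addition, then a 110 s antagonist read after challenge with 54-4 at 4 uM final (EC80).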
D2 agonist – Beta-Arrestin HTS for Positive Allosteric Modulators of the Human D2 Dopamine Receptor: Agonists; D(2) dopamine receptor (Homo sapiens), P14416; DiscoveRx PathHunter D2 beta-arrestin, luminescence, 90 min; 100% = 57 uM dopamine signal; activation, % (concentration not given with the values); hit rate 0.084% among 360,000; AID 624465, 2012; in the data active = activation above about 40%; inconclusive = about 15% to 40%; inactive = below about 15%; further: compound concentration not given in the record; the text of the record calls up to 30% inactive
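DiscoveRx PathHunter D2 beta-arrestin cells (2,100/well) attached overnight, then compound-stimulated 90 min at 37 C in HBSS/10 mM HEPES/0.1% Tween-20 buffer; beta-galactosidase complementation read by luminescence after 1 h at ambient temperature. Dopamine 57 uM final (EC100) as control.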
TRPML1 agonist – qHTS for Agonists of the Human Mucolipin Transient Receptor Potential 1 (TRPML1); Mucolipin-1 (Homo sapiens), Q9GZU1; TRPML1-expressing cells, Ca2+ dye fluorescence, FDSS; host cell line not named in the record; reference of the full effect not given here; activation, % (test concentration not listed); hit rate 0.12% among 410,000; AID 624414, 2012; in the data active = activation above about 50%; inconclusive = about 30% to 50%; inactive = below about 30%; further: 0% is about no effect; the text of the record puts the active cut at 80%
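Calcium fluorescence on an FDSS kinetic reader gave the read-out. Tet-induced TRPML1-DL cells were plated overnight, dye-loaded (Ca8 with quencher, 45-90 min, room temperature, dark), then read 110 s after compound addition, and again 110 s after 4uM final 54-4 (EC80).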
PINK1 modulator – A Quantitative High throughput Screen to Identify Chemical Modulators of PINK1 Expression | AID 624263, 2012 | Potency, µM (series often up to 76.6 µM), inactives show at the highest dose activation (PINK1 increase), hits mostly activators | hit rate 0.2% among 410,000 | PINK1 immunofluorescence, high-content cytometry, 24 h; active = well fitted activation curve with a large enough effect; inconclusive = small, poorly fitted or top-dose-only effect; inactive = flat fitted curve, though single readings scatter; cell line not stated here;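 further: potency means the concentration at half of the fitted maximal effect; % of control where 0% means no effect; nearly all actives have a fitted effect of over 65% in size; a mitochondrial uncoupler was the plate control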
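Stable cell line, 250 cells/well, 12 h attachment; compounds pinned at 5 concentrations, 24 h; CCCP control. Fixed with nuclear dye, primary antibodies 12 h at 10 degrees C, secondary plus cell stain; laser-scanning cytometer read.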
* hit, by the source's call; u = inconclusive; x = not tested or not shown; [ ] = dose if it differs, or a comment.

Screens in order: PINK1 modulator | D2 agonist | Six1-Eya2 inh | D2 PAM | TRPML1 agonist | TRPML1 blocker
- OC(CN1CCN(Cc2ccccc2)CC1)c1ccc(Br)cc1 (stereo not given)
    1.1% | -0.8 | -15 | -29 | 0.3 | 19
- O=[N+]([O-])c1ccc(N2CCN(C(=S)Nc3ccc(F)cc3)CC2)cc1
    0.6% | 4.9 | -6 | -17 | 0.3 | -7
- CC(C)CC(=O)N1CCN(Cc2cccc(F)c2)CC1
    -1.4% | 3.6 | 6 | -5 | 0.5 | 5
- O=C(NCCO)/C(=C\c1cccc([N+](=O)[O-])c1)NC(=O)c1ccco1
    2.3% | -1.1 | 0 | -4 | 0.2 | 8
- COc1ccc(N2CC(C(=O)OCC(=O)c3cccc(OC)c3)CC2=O)cc1 (stereo not given)
    2.4% | -2.0 | 0 | -13 | -0.6 | -3
- CC1CCC/C(=N\NS(=O)(=O)c2ccccc2)C1 (stereo not given)
    0.9% | -3.9 | 6 | -8 | x | x
- COc1ccc(CN2C(=O)c3cccnc3C2=O)cc1S(=O)(=O)N1CCOc2ccc(C)cc21
    -0.2% | 4.9 | -7 | -1 | 3.9 | 1
- Clc1ccc(-c2onc3c2CCCC3)cc1
    -0.6% | -2.2 | 20 | 5 | -0.5 | -6
- COc1ccc(NC(=O)C23CC4CC(C2)CC(n2cnc(Br)n2)(C4)C3)cc1Cl
    2.6% | -3.9 | -25 | 28 | -0.6 | -22
- COc1cccc(NC(=O)N2CCCC2C(=O)NCc2ccccc2)c1 (stereo not given)
    0.6% | -2.4 | 10 | -3 | -0.1 | -5
- Cc1c(C#N)c2ccccc2n1CCOc1ccccc1F
    x | 0.5 | 12 | 2 | 2.7 | 2
- COC(=O)C1=C(C)NC(=O)C1(NC(=O)CN1CCCC1=O)C(F)(F)F (stereo not given)
    -0.6% | 2.9 | -3 | 9 | 1.5 | 24
- Cc1c(C(=O)NC2CCCCC2)oc2c1C(=O)CC(C)(C)C2
    -2.7%[38.3 µM] | -0.2 | 4 | -12 | 1.0 | -8
- Cc1nc2cc(C(=O)NCCC3=CCCCC3)ccc2n1-c1ccc(Br)cc1
    -1.0% | x | x | x | 0.7 | -1
- CCn1cc(C2C(C(=O)Nc3ccc(Br)cn3)=C(C)NC3=C2C(=O)CCC3)c(C)n1 (stereo not given)
    -0.8% | -2.8 | 1 | -5 | -0.2 | -5
- O=C(NNC(=O)c1cnccn1)c1ccc(Cl)c(Cl)c1
    2.6% | 9.2 | -14 | 2 | -0.3 | 6
- COc1ccc2oc(C(=O)OCC(=O)NCc3ccccc3OC)c(C)c2c1
    11% | 1.8 | 0 | -3 | 4.4 | -11
- Cc1ccc2[nH]nc(C(=O)N3CCCC(C(=O)c4ccc(Cl)cc4)C3)c2c1 (stereo not given)
    -0.6% | 0.0 | -2 | -1 | 1.1 | 1
- CCOc1ccc(NC(=O)c2cc3c(-c4ccccc4F)nn(C)c3s2)cc1
    -0.5% | x | x | x | 1.1 | 36
- COc1ccc(S(=O)(=O)CC2(O)CCN(C(=O)C(C)(C)C)CC2)cc1
    2.1% | -7.7 | 1 | -4 | -0.6 | 5
- CN(c1ccc(Cl)cc1)c1cc2c(c3c1ccn3C)C1CCC2O1 (stereo not given)
    1.3% | 3.7 | u | 0 | 1.0 | 29
- COc1ccc(-n2c(SCC(=O)c3ccc(Cl)cc3)nc3c([nH]c4ccccc43)c2=O)cc1
    -1.9% | x | x | x | 0.0 | -9
- O=C(NCCc1csc(-c2cccnc2)n1)c1c(F)cccc1F
    1.9% | 2.6 | 1 | 1 | 1.2 | 6
- S=c1nccc(-c2ccc(Cl)cc2)[nH]1
    -2.7% | -2.1 | 3 | -6 | -0.3 | 55
- Cc1ccc(C)c(NNC(N)=S)c1
    1.7% | -1.1 | -12 | -6 | 0.5 | 1
- CCCc1nnc(SCC(=O)NC2CCCCC2)n1CCOC
    0.7% | -4.3 | 1 | -5 | -0.1 | -5
- O=C(Nc1ccc(S(=O)(=O)Nc2ccccn2)cc1)c1cccc(Br)c1
    -1.2% | 2.6 | -10 | 12 | 1.9 | 19
- O=C(/C=C/c1ccccc1)c1ccoc1
    4.5% | 0.6 | 8 | -7 | -0.7 | 2
- O=C(C1=C[C@@H](C2CCCCC2)C[C@@H](OCCCCO)O1)N1CCN(Cc2ccccc2)CC1
    -0.3% | 2.2 | -7 | -9 | -0.2 | 16
- CC(=O)c1cccc(NC(=O)CN(c2cc(C)cc(C)c2)S(=O)(=O)c2c(C)noc2C)c1
    0.8% | x | x | x | -1.0 | -5
- CCCC(c1nnnn1CCOC)N1CCN(C(=O)c2ccco2)CC1 (stereo not given)
    -0.3% | -1.4 | 2 | -4 | -0.2 | -4
- CCN1CCN(Cc2ccc(NC(=O)c3ccc(C)c(NC(=O)c4cccc(-c5cn[nH]c(=O)c5)c4)c3)cc2C(F)(F)F)CC1
    -1.3% | 2.2 | -26 | -23 | 0.2 | 9
- Cc1ccccc1N1C(=O)CC1(C#N)c1ccc(OCc2ccccc2)cc1 (stereo not given)
    -1.4% | -1.6 | -2 | -9 | 1.6 | 1
- CCOc1ccc(S(=O)(=O)N2CCC(C(=O)NCC(=O)Nc3cccc(Cl)c3C)CC2)cc1
    0.9% | 0.0 | -2 | 1 | -0.2 | 8
- COc1ccc(N(CC(=O)NCCSCc2ccco2)S(=O)(=O)c2ccccc2)cc1Cl
    -0.2% | -4.3 | -18 | -8 | 0.9 | 6
- COc1ccc2ncc3c(-c4ccccc4)nn(-c4ccc(C)c(C)c4)c3c2c1
    1.0% | x | x | x | 0.5 | 8
- O=C(NCc1ccc(F)cc1)c1cc(C2CCCCN2C(=O)C2CCCCC2)on1 (stereo not given)
    0.6% | -2.5 | -5 | -4 | -0.7 | x
- CCc1ccc(NC(=O)N2CCCCCC2)cc1
    0.2% | -1.5 | 3 | -12 | -0.1 | -7
- COc1ccc(S(N)(=O)=O)cc1N(C)S(=O)(=O)c1ccccc1
    -0.4% | -2.2 | 1 | -2 | -0.4 | -4
- C/C=C/c1ccc(OCCOc2ccc(C=O)cc2OC)c(OC)c1
    10% | -0.4 | -15 | -9 | 4.5 | 0
- O=C(NCc1ccc(F)cc1)C1CCN(S(=O)(=O)N2CCOCC2)CC1
    -0.9% | 1.3 | 23 | -34 | 0.7 | -25
- CCCN(CCC)C(=O)/C=C/c1cccc([N+](=O)[O-])c1
    -1.1% | 1.1 | -2 | -14 | 0.8 | 0
- Cc1ccc(C(=O)NC2CCCCCC2)cc1N1CCCC1=O
    -1.4% | -3.8 | -1 | -7 | -0.6 | -14
- Cc1ccc(C(=O)CSc2nnnn2-c2ccccc2)o1
    1.9% | -3.5 | 5 | -2 | 0.2 | 7
- Cc1cccc(Cn2c(=O)n(Cc3ccc4c(c3)OCO4)c(=O)c3oc4ccccc4c32)c1
    -0.3% | x | x | x | 1.3 | 3
- COC(=O)n1ccc(C(=O)Nc2ccccc2F)n1
    1.7% | -4.0 | -4 | -9 | -0.3 | 3
- COC(=O)c1sc(SC)c(S(=O)(=O)C(C)C)c1N/N=C(\C#N)C(=O)c1ccccc1
    2.4% | -8.7 | 13 | -24 | -0.4 | -2
- CC(C)CCNC(=S)Nc1ccc(F)cc1
    3.0% | -2.2 | 5 | -8 | 0.5 | -4
- CCCn1cnc2scc(-c3ccc(OC)cc3)c2c1=O
    1.5% | 1.3 | -1 | -18 | 1.1 | -1
- Fc1ccc(C2CCCN2Cc2nc(Cc3ccccc3)no2)cc1 (stereo not given)
    1.3% | -2.9 | 14 | -11 | 0.1 | 8
- CC(=O)c1c(C)oc2ccc(N(C(=O)c3ccncc3)S(=O)(=O)c3ccc(F)cc3C)cc12
    2.6% | x | x | x | 2.9 | 10
- COc1ccc(C(=O)N2CCCC(Nc3ccc(F)cc3)C2)cc1F (stereo not given)
    -1.5% | -1.7 | 0 | 9 | 0.3 | 3
- CCN1C(=O)/C(=C/N2CCc3ccccc3C2)SC1=S
    3.3% | -4.9 | -20 | -5 | 0.8 | 6
- CCOC(=O)c1c(C)[nH]c(C)c1S(=O)(=O)NCCCc1ccco1
    -0.9% | -5.1 | -8 | -19 | -0.5 | -1
- O=C1OCC2=C1C(c1ccc(F)cc1)Sc1ccccc1N2 (stereo not given)
    -1.1%[38.3 µM] | 2.8 | 11 | 8 | 0.6 | -20
- CN1CCN(c2nc3ccccc3nc2NS(=O)(=O)c2ccc(Br)cc2)CC1
    -1.0% | -2.8 | 2 | -30 | 1.6 | 22
- Cn1c(SCC(=O)O)nc2ccccc2c1=O
    -2.1%[38.3 µM] | -0.2 | 5 | -6 | 1.4 | 2
- CCOC(=O)c1cc(C(=O)OCC)c(=O)[nH]c1C
    0.7% | 0.2 | 3 | -9 | -0.3 | 2
- Cc1ccc(N(CC(=O)Nc2ccc(S(=O)(=O)N3CCOCC3)cc2)S(C)(=O)=O)cc1C
    -3.8% | -0.1 | -4 | -6 | -0.1 | 24
- O=C1CC2(CCCCCC2)Oc2ccc(Cl)cc21
    9.8% | -2.7 | 3 | 0 | -1.0 | -9

Further structures
Screens in order: PINK1 modulator | D2 agonist | Six1-Eya2 inh | D2 PAM | TRPML1 agonist | TRPML1 blocker
- COC(=O)c1ccc(OC(=O)CCc2cc(OC)c(OC)c(OC)c2)cc1
    -0.1% | 2.8 | 1 | -16 | 0.6 | 3
- Cc1ccc(C)n1-c1ncn[nH]1
    -0.8% | -4.4 | -2 | 0 | -0.5 | 23
- N#C/C(=C(/O)c1ccc(Cl)cc1)c1nc2ccccc2[nH]1
    2.2% | -3.1 | 1 | 1 | 0.5 | -1
- CC(C)NC(=O)Cc1csc2nc(-c3ccccc3)cn12
    1.5% | x | x | x | 0.7 | 23
- O=C(Cn1cnc2cc([N+](=O)[O-])ccc2c1=O)Nc1ccc(Br)cc1
    -1.2% | 2.6 | -20 | -9 | -0.2 | 4
- COCCCNC(=O)/C=C1\Sc2ccccc2N(Cc2ccccc2F)C1=O
    9.5% | -3.0 | 4 | -10 | x | x
- COc1ccc(NC(=O)CCCN2C(=O)CCC2=O)cc1Cl
    -0.9% | 2.7 | 5 | 4 | -0.3 | 12
